# High-throughput results (PubChem BioAssay)
# GIV-Gai inh: blocks GIV peptide binding to rat Galpha-i3 | P08753 | Galpha-i3/FITC-GIV peptide fluorescence polarization, 90 min; hits give low values; scaled: aluminum fluoride 0%, vehicle 100% | percent of control (FP), % (concentration not given with the values) | hit rate 0.42% among 210,000;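 active means replicate mean at 85% of control or lower, very high polarization wells dropped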;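 further: wells of about 15 µL received 100 nL stock; the first replicate is given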
# Target sequence (P08753 whole entry, looked up): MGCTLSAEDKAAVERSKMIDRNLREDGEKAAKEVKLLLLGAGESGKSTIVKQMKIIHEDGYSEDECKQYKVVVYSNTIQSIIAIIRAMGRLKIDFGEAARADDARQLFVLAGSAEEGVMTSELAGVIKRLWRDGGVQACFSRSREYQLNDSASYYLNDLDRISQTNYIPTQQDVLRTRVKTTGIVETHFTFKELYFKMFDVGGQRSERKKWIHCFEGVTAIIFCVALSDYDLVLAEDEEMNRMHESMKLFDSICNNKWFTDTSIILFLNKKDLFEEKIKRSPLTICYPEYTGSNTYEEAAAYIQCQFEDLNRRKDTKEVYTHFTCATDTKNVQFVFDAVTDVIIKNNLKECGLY
# HCMV UL50-53 inh: inhibitors of HCMV UL50-UL53 nuclear egress complex interaction; HTRF UL50-UL53 interaction, normalized percent inhibition; inhibition, % (no concentration beside the values); hit rate 0.15% among 190,000; AID 1918969;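 active means both replicates at 50% or more, plus weaker picks with an unusually low signal ratio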;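 further: stock transfer was 100 nL into about 20 µL; 0% = negative control wells and 100% = wells with untagged competitor protein; inactives centre near -12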
# Sa growth 42C: inhibitors of Staphylococcus aureus growth at 42 °C. hit rate 0.53% among 170,000. S. aureus RN4220 growth, OD600, 20 h; hits give low values. relative growth, % (no concentration beside the values). AID 720641;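 active means growth at 42 °C up to 50% and 20 or more points under that at 30 °C, or under 10% at both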;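 further: 300 nL library stock went into each well; scaled to the means of positive and negative controls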
# Sa growth 42C second temp: also measured in Sa growth 42C; calls as there; relative growth, %; measured here: growth at 30 °C;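 optical density after 20 h as mean of two plates; 100% = untreated growth and lower means inhibition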
# Active calls of the source: *; · = no result given; & = joins results of further samples.
molecule	GIV-Gai inh	HCMV UL50-53 inh	Sa growth 42C	Sa growth 42C second temp
O=C(NCc1ccccc1)c1ccc(NC(=O)N2CCCCc3ccccc32)cc1	101	-9	·	·
CC(=O)N1CCc2cc(NC(=O)NC34CC5CC(CC(C5)C3)C4)ccc21	101	-30	95	82
Cc1cc(C)c2c(-n3cccc3)c(C(=O)NCc3cccnc3)sc2n1	103	-14	84	90
COc1ccc(CCCc2nnc(SCC(=O)Nc3ccc(OC)cc3)o2)cc1	104	-23	120	93
CCCc1noc(-c2ccc(NCc3ccc(C)cc3)c([N+](=O)[O-])c2)n1	95	-12	111	91
O=c1cc(CO)oc(C(Nc2cccc(Cl)c2)c2ccccn2)c1O (stereo not drawn)	·	-28	86	91
CCCCCN(CCCCC)C(=O)C(CCC(=O)O)NC(=O)c1ccc(Cl)c(Cl)c1 (stereo not drawn)	105&97	-41&-22&-1	102	96
COc1ccc(-n2ccnc(SCC(=O)Nc3cc(C)cc(C)c3)c2=O)cc1	102	-64	·	·
O=C(CCC(=O)N1CCOCC1)Nc1c(F)c(F)nc(N2CCOCC2)c1F	103	·	98	90
O=S1(=O)CC(S(=O)(=O)c2ccccc2)C(S(=O)(=O)c2ccccc2)C1 (stereo not drawn)	104	-33	87	77
O=C(NCCOc1ccccc1)C1CCN(c2ncc(C(F)(F)F)cc2Cl)CC1	·	5	113	105
S=C(Nc1ccccc1)N1CCN(c2ccc3nnc(-c4ccccc4)n3n2)CC1	104	·	100	84
CCCn1c(=O)c2sccc2n2c(CCCC(=O)N3CCN(c4ccccc4)CC3)nnc12	102	·	113	88
CCOC(=O)C1=C(C)N=c2s/c(=C3\C(=O)N(CC)c4ccccc43)c(=O)n2C1c1ccc(Cl)cc1 (stereo not drawn)	95	2	·	·
CN(CC(=O)NCCc1c[nH]c2ccccc12)c1nn2c(NC(C)(C)C)c(-c3ccccc3)nc2s1	102	-6	·	·
CCN(CC)c1ccc(NC(=O)c2cccs2)c(N(CC)CC)n1	106	-26	84	63
CC(C)(C)C(=O)Nc1nnc(SCC(N)=O)s1	107	-2	108	103
CC(=O)N(Cc1ccccc1)c1ccccc1C(=O)O	·	15	105	101
Cc1ccc(C(=O)Nc2cccc(OCc3cc(=O)n4c5c(sc4n3)CCCC5)c2)cc1	111	21	92	88
Cc1ccccc1C(=O)Nc1ccc(C(=O)OCc2cc(=O)n3c4c(sc3n2)CCCC4)cc1	108	·	112	98
Cc1ccc(NC(=O)C2CCN(S(=O)(=O)c3ccc4c(c3)CCCC(=O)N4)CC2)c(Cl)c1	105	·	93	86
O=C(NCCc1ccccc1)C(=O)NCC(c1cccs1)S(=O)(=O)c1cccs1 (stereo not drawn)	100	·	102	101
CCc1ccc(NC(=O)C(CC)n2nnc(C(=O)OC)c2C(=O)OC)cc1 (stereo not drawn)	103	-13	87	64
O=C(Nc1ccc(Br)cc1)C1CCN(c2cnccn2)CC1	100	-15	104	90
C/C(=N\O)C(C)Oc1ccc(Cl)cc1 (stereo not drawn)	106	-11	·	·
Cc1nn(C)c2nc(OC(C)C(=O)Nc3ccc4c(c3)OCCO4)cc(C(F)(F)F)c12 (stereo not drawn)	107	-15	·	·
c1ccc(CN2CCC(c3ccco3)=N2)cc1	111	-51	101	86
Cc1ccc(CCNC(=O)c2nnc(CS(=O)(=O)c3ccccc3)o2)cc1	99	6	85	92
CN=c1scc(-c2cccs2)n1/N=C/c1ccc[nH]1	·	-42	95	64
O=C(CSc1n[nH]c(=O)n1Cc1ccco1)c1csc2ccccc12	97	-24	80	88
Cc1cccc(-n2cnc(C(=O)N3CCN(c4ccccc4)CC3)c2)n1	104	-8	·	·
Cc1cc(Br)ccc1NC(=O)c1cc2c(s1)-c1ccccc1SC2	98	-2	106	90
COc1ccc(C(=O)Nc2ccc3oc(-c4cccc(Br)c4)nc3c2)cc1[N+](=O)[O-]	109	-11	·	·
COc1ccc(NC(=O)Cn2c(C)cc(C)c(S(=O)(=O)c3ccc(OC)c(OC)c3)c2=O)cc1OC	105	2	·	·
CC(=O)N/C(=C/c1ccccc1)C(=O)Nc1ccc(I)cc1	·	-37	88	82
CCOc1ccc(NC(=O)CCNS(=O)(=O)c2cccs2)cc1	98	-10	101	87

# Two of the compounds above, with two lines to a compound.
# Second line of a record: GIV-Gai inh | HCMV UL50-53 inh | Sa growth 42C | Sa growth 42C second temp
- CCOc1ccc(NC(=O)CCNS(=O)(=O)c2cccs2)cc1
    98 | -10 | 101 | 87
- Cc1nn(C)c2nc(OC(C)C(=O)Nc3ccc4c(c3)OCCO4)cc(C(F)(F)F)c12 (stereo not drawn)
    107 | -15 | · | ·

# New compounds follow
molecule	GIV-Gai inh	HCMV UL50-53 inh	Sa growth 42C	Sa growth 42C second temp
CCO/N=C(/N)c1[nH]ncc1Br	107	-18	103	86
Clc1ccccc1N1CCN(CC2CC=CCC2)CC1 (stereo not drawn)	100	12	100	107
Cc1[nH]n(-c2ccc(Cl)cc2)c(=O)c1C=O	104	-5	127	96
COC1(C)CNc2ccccc2C(=O)N1 (stereo not drawn)	99	·	108	78
CCCCCCCn1c(SC/C=C(\C)Cl)nc2c1c(=O)[nH]c(=O)n2C	95	-10	·	·
COc1ccc2c(c1)CCC(C)N2S(=O)(=O)c1ccc(C2CNC(=O)C2)cc1 (stereo not drawn)	102	-1	103	99
CCCN(CCC)C(=O)Cn1c(=O)n(-c2ccc(C)cc2)c(=O)c2ccc(C(=O)NCc3ccccc3Cl)cc21	106	4	99	83
CCCCc1[nH]nc2c1C1(CCCCC1)C(C#N)=C(N)O2	·	-2	81	88
CCN(CC)CCNC1=NCCn2c1cc1cc(OC)ccc12	101	·	103	86
CC(C)CN(C[C@@H](O)[C@H](Cc1ccccc1)NC(=O)O[C@H]1CCOC1)S(=O)(=O)c1ccc(N)cc1	103	-33	94	89
NC(=O)Cn1cnc2c(nnn2Cc2ccccc2)c1=O	101	9	107	99
CC(=O)Nc1ccc(C(=O)OCC(=O)N2CCCC2)cc1	·	-6	104	92
c1ccc(-c2nsc(N3CCCC3)n2)cc1	96	-12	95	84
CC(C)Cn1c(=O)c2sccc2n2c(SCc3ccc(Cl)cc3)nnc12	98	-42	·	·
COc1ccc(N2CCN(CCCNC(=O)C3CCC(=O)N3Cc3ccc(F)cc3)CC2)cc1 (stereo not drawn)	102	-28	108	90
CC(C)CNC(=O)c1cnn2c(C(F)(F)F)cc(-c3ccc(Br)cc3)nc12	94	6	·	·
Cc1oc(C(C)(C)C)cc1C(=O)N1CCN(C(c2ccccc2)c2ccccc2)CC1	103	-10	106	95
Cc1nc(NC2=NCCC(=O)N2)nc2ccccc12	·	-2	109	82
Cc1ccc(C=Nc2ccc(Oc3ccccc3)cc2)s1	·	-12	99	103
NS(=O)(=O)c1cccc(S(=O)(=O)c2ccc(Cl)c(Cl)c2)c1	105	-13	107	103
Cc1ccc(S(=O)(=O)c2cn(Cc3ccccc3Cl)c3ccc(F)cc3c2=O)cc1	105	-6	99	81
CC(=O)N1CCc2cc(CNS(=O)(=O)c3ccc(F)cc3)ccc21	105	·	81	89
O=C(Nc1cccnc1)c1c(O)c2ccccc2[nH]c1=O	108	23	96	102
c1ccc(CCCN2CCNCC2)cc1	·	1	95	99

# Ordered by value in Sa growth 42C (highest first): some entries from above
structure,GIV-Gai inh,Sa growth 42C,Sa growth 42C second temp
NS(=O)(=O)c1cccc(S(=O)(=O)c2ccc(Cl)c(Cl)c2)c1,105,107,103
Cc1oc(C(C)(C)C)cc1C(=O)N1CCN(C(c2ccccc2)c2ccccc2)CC1,103,106,95
Cc1ccc(C=Nc2ccc(Oc3ccccc3)cc2)s1,·,99,103
c1ccc(CCCN2CCNCC2)cc1,·,95,99
CC(=O)N1CCc2cc(CNS(=O)(=O)c3ccc(F)cc3)ccc21,105,81,89

# New compounds follow
molecule	GIV-Gai inh	HCMV UL50-53 inh	Sa growth 42C	Sa growth 42C second temp
COc1ccc(-c2nc3c4ccccc4n(CC(=O)N4CCN(c5ccc(F)cc5)CC4)c(=O)n3n2)cc1	100	·	95	100
Cc1nn2c(COc3ccc(NC(=O)c4ccco4)cc3)nnc2c2ccccc12	98	-27	83	78
CS(=O)(=O)Nc1ccc(OC(F)(F)F)cc1	100	3	93	105
CCCC(=N)C1=C(O)CC(CC(C)SCC)CC1=O (stereo not drawn)	106	-10	122	55
c1ccc(CSC2=NNC(c3ccccn3)S2)cc1 (stereo not drawn)	102	-6	113	96
CCCCN(C(=O)c1ccc2c(c1)OCO2)C1CCS(=O)(=O)C1 (stereo not drawn)	100	-29	99	84
c1ccc(-c2ncc(CN3CCN(c4ccccn4)CC3)[nH]2)cc1	103	-32	103	84
Cc1noc(C)c1COc1ccc(C(=O)OCC(=O)N2CCc3ccccc3C2)cc1	·	4	99	90
CCn1ccc2cc(S(=O)(=O)N3CCCN(C(=O)Nc4ccc(F)c(Cl)c4)CC3)ccc21	107	4	·	·
COc1ccc(Cl)cc1NS(=O)(=O)c1ccc2[nH]c3c(c2c1)CCCC3	104	·	104	92
CC(=O)N(C)c1ccc(NC(=O)C23CC4CC(C2)CC(n2cnc(Cl)n2)(C4)C3)cc1	98	-3	96	99
O=C(O)/C=C\C(=O)NCc1ccco1	101	6	102	115
COCCNC(=O)Cn1cc(C(=O)C(F)(F)F)c2ccccc21	95	-20	86	84
CCOC(CNc1ccc2nnc(-c3ccccc3)n2n1)OCC	107	-32	91	87
COc1ccc(C(CC(=O)NCc2ccc3c(c2)OCO3)n2cccc2)cc1 (stereo not drawn)	105	-14	99	97
CCCn1nc(-c2nnc(-c3ccc(C)c(C)c3)o2)c2ccccc2c1=O	·	-17	80	90
O=C(N/N=C/c1ccc(O)c(O)c1O)c1ccc(CSc2nc3ccccc3o2)cc1	·	-17	58	28
CCc1ccc(CNC(=O)CCCN2C(=O)CCn3nc(-c4cn(C)c5ccccc45)cc32)cc1	109	3	·	·
COC(=O)c1ccc(CSc2nc3ccncc3n2Cc2ccc(F)cc2)cc1	99	-21	101	91
CCCCC1(C)OC(=O)C(=Cc2ccc(N(C)C)cc2)C(=O)O1 (stereo not drawn)	275	1	109	82
CC(C)Cc1cc(-c2nn3c(-c4cccc(Cl)c4)nnc3s2)n[nH]1	108	-8	·	·
CN(C)CCN(C)CC1CC=CCC1 (stereo not drawn)	104	-12	105	55
Cc1ccc(C)c(-n2cc(-c3ccccc3)nc2SCC(=O)Nc2ccccc2)c1	103	·	93	86
COc1ccccc1N1CCN(c2ncnc3sc4c(c23)CCCC4)CC1	107	-7	·	·
COc1ccccc1-c1nnc(C2CCN(C(=O)c3ccc(F)cc3)CC2)o1	103&103	-1&1	100	97
Cc1ccc(C(=O)N/C(=C\c2ccco2)C(=O)N2CCCC2)cc1	·	-19	101	88
COC(=O)c1sc2ccccc2c1NC(=O)c1ccc(S(=O)(=O)N(C)c2ccccc2)cc1	100	·	88	92
Fc1ccccc1-c1nnc2sc(-c3c[nH]c4ccccc34)nn12	101	5	·	·
CC(C)(C)c1cc(NC(=O)Nc2ccc(Cl)cc2Cl)no1	105	-11	100	94
CC1CCC(NC(=O)C2(C)Cn3c(cc4sccc43)C(=O)N2Cc2ccc3c(c2)OCO3)CC1 (stereo not drawn)	100	-4	·	·
O=C(NN1CC(=O)N(C(c2ccccc2)c2ccccc2)C1=O)c1ccncc1	104	-6	113	86
CCOc1ccc(NC(=O)CSc2nc(C)c(C(=O)Nc3ccccc3)c(-c3ccc(Cl)cc3)c2C#N)cc1	108	-17	94	89
CCOc1ccc(N(CC)S(=O)(=O)N2CCCC(C(=O)NCCc3ccccc3OC)C2)cc1 (stereo not drawn)	108	·	90	71
Cc1ccc(NC(=O)/C(C#N)=C/c2cc(C)n(-c3ccc(F)cc3)c2C)cc1C	103	-37	85	87
CC1(C)Cc2c(sc(NC(=O)C(c3ccccc3)c3ccccc3)c2C#N)CO1	100	·	102	81
CCCCC1CCC(C(=O)N(Cc2sccc2C)C2CCS(=O)(=O)C2)CC1 (stereo not drawn)	103	·	91	52
O=C(c1cc(F)cc2c1OCOC2)N1CCN(C2c3ccccc3-c3ccccc32)CC1	103	-26	91	64
Cc1ccc(S(=O)(=O)N2CCC(C(=O)OC(C)C(=O)NCc3ccc4c(c3)OCO4)CC2)cc1 (stereo not drawn)	·	-1	109	91
COc1ccc(-c2nn3c(Nc4ccc(C)cc4)cc(C)nc3c2C)cc1OC	106	-36	·	·
CCOCCCNC(=O)C1CCN(c2ccc(-c3ccccc3)nn2)CC1	101	-27	·	·
CCn1c(=O)c(C(=O)Nc2ccc(Cl)cc2)c(O)c2ccccc21	106	-14	·	·
CN(C)c1ccc(-c2ncnn2-c2ccccc2)cc1	101	-44	91	83
CN(c1ccnc(C(=O)N2CCOCC2)c1)S(=O)(=O)c1ccccc1	104&99	-13&-39	93	90
O=C(c1cccnc1)N1C(=O)c2cccc3c(S(=O)(=O)N4CCCCC4)ccc1c23	103	-22	91	87
CC(C)CNC(=O)C1C2C=CC(C2)C1C(=O)O (stereo not drawn)	102	-4	127	89
CC(O)CNc1ncnc2scc(-c3ccccc3)c12 (stereo not drawn)	100	·	97	77
N#Cc1c(N2CCOCC2)nsc1-c1ccccc1Cl	105	-4	93	90
Brc1ccc(CN2CCc3nc(Nc4ccccc4)ncc3C2)s1	110	·	130	98
